Sa growth inh – inhibitors of Staphylococcus aureus growth at 42 °C | S. aureus RN4220 growth, OD600, 20 h; hits give low values | relative growth, % (no concentration beside the values) | hit rate 0.53% among 170,000 | AID 720641;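 active means growth at 42 °C up to 50% and 20 or more points under that at 30 °C, or under 10% at both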;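 further: 300 nL library stock went into each well; scaled to the means of positive and negative controls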
GIV-Gai inh – GIV-Galpha-i interaction inhibition; Galpha-i3/FITC-GIV peptide fluorescence polarization, 90 min; hits give low values; scaled: aluminum fluoride 0%, vehicle 100%; percent of control (FP), % (no concentration beside the values); hit rate 0.42% among 210,000;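 active means replicate mean at 85% of control or lower, very high polarization wells dropped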;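 further: wells of about 15 µL received 100 nL stock; the first replicate is given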
Target sequence (P08753 whole entry, looked up): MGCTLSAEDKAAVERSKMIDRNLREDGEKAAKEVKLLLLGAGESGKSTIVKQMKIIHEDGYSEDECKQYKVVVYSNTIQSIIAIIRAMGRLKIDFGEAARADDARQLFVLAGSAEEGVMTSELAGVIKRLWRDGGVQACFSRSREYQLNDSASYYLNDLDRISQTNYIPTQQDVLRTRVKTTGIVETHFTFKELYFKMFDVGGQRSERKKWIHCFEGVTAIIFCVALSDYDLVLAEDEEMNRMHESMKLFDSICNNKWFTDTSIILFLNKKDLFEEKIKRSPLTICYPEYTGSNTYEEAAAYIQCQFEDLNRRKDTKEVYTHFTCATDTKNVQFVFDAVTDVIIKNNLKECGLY
HCMV NEC inh – cytomegalovirus nuclear egress complex inhibition. hit rate 0.15% among 190,000. inhibition, % (concentration not given with the values). HTRF UL50-UL53 interaction, normalized percent inhibition. AID 1918969;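 active means both replicates at 50% or more, plus weaker picks with an unusually low signal ratio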;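 further: stock transfer was 100 nL into about 20 µL; 0% = negative control wells and 100% = wells with untagged competitor protein; inactives centre near -12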
Sa growth inh second temp – further read-out of Sa growth inh, marked with its call; relative growth, %; measured here: growth at 30 °C;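 optical density after 20 h as mean of two plates; 100% = untreated growth and lower means inhibition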
Starred values were filed as active, the others as inactive; & = joins results of further samples; ! = repeats disagree.

`CN1C(=O)c2cc(NC(=O)c3cccc(Cl)c3)ccc2N2CCN=C12` gave GIV-Gai inh 98 and HCMV NEC inh -21.
COc1ccccc1C(Nc1ccccn1)c1cc(C)sc1NC(=O)c1ccccc1 (stereo unspecified) was read as GIV-Gai inh 116 and HCMV NEC inh -10.
COC(=O)c1ccccc1NC(=O)Cn1c(C)ccc1C was read as Sa growth inh 72, GIV-Gai inh 113, HCMV NEC inh -2 and Sa growth inh second temp 99.
Screening COc1ccc(OCC(=O)N2c3ccccc3C(C)(c3ccccc3)CC2(C)C)cc1 (stereo unspecified) returned Sa growth inh 91, GIV-Gai inh 105 and Sa growth inh second temp 86.
Cc1ccc2nc(SCc3nc4ccccc4n3C)[nH]c2c1 was read as Sa growth inh 93, GIV-Gai inh 106, HCMV NEC inh 2 and Sa growth inh second temp 97.
For COC(=O)/C=C1\SC(=Nc2ccccc2)NC1=O the results were Sa growth inh 90, GIV-Gai inh 101 and Sa growth inh second temp 67.
Screening CCOc1ccccc1NC(=O)Cn1c(=O)n(Cc2ccccc2)c(=O)c2c(C)c(C(=O)N(C)C)sc21 returned Sa growth inh 92, GIV-Gai inh 96 and Sa growth inh second temp 86.
Screening O=C(Cc1ccc(S(=O)(=O)N2CCOCC2)s1)Nc1ccc(-c2cn3ccsc3n2)cc1 returned Sa growth inh 104, HCMV NEC inh -29 and Sa growth inh second temp 94.
For O=C(CSc1ccccn1)Nc1ccc(F)c(Cl)c1 the results were Sa growth inh 87, GIV-Gai inh 106, HCMV NEC inh -19 and Sa growth inh second temp 79.
CC(C)Sc1n[nH]c(=S)n1C was read as Sa growth inh 99, GIV-Gai inh 105, HCMV NEC inh -8 and Sa growth inh second temp 83.
Screening CN1C(=O)C2ON(c3ccccc3)C(c3ccccc3)C2C1=O (stereo unspecified) returned Sa growth inh 95, GIV-Gai inh 103, HCMV NEC inh -6 and Sa growth inh second temp 90.
For CN(C)c1ccc(-c2nc3ccccc3s2)cc1 the results were Sa growth inh 74, GIV-Gai inh 106, HCMV NEC inh -7 and Sa growth inh second temp 79.
Cc1ccccc1C(=O)OC(C)CN1CCCC1 (stereo unspecified) was read as Sa growth inh 111, HCMV NEC inh -10 and Sa growth inh second temp 85.
For COc1ccc(C2C(C(=O)O)c3ccccc3C(=O)N2Cc2ccc(F)cc2)cc1 (stereo unspecified) the results were GIV-Gai inh 98 and HCMV NEC inh -24.
Screening O=C(Nc1sc2c(c1C(=O)N1CCCCC1)CCCC2)c1ccco1 returned Sa growth inh 88, GIV-Gai inh 102, HCMV NEC inh 8 and Sa growth inh second temp 92.
Screening Cc1[nH]cc(Br)c(=O)c1OCC(=O)O returned Sa growth inh 97, GIV-Gai inh 106, HCMV NEC inh -20 and Sa growth inh second temp 97.
`Cn1c(=O)c2sccc2n2c(CCC(=O)N3CCC(C(N)=O)CC3)nnc12` gave GIV-Gai inh 98 and HCMV NEC inh 0.
`C=CCNC(=O)C1CCN(S(=O)(=O)c2cccc(C(F)(F)F)c2)CC1` gave Sa growth inh 110, GIV-Gai inh 102, HCMV NEC inh 4 and Sa growth inh second temp 74.
For O=C(O)CN=C1NC2(CCCC2)Cc2ccccc21 the results were Sa growth inh 65, GIV-Gai inh 106, HCMV NEC inh -8 and Sa growth inh second temp 81.
Screening COc1cccc(NC(=O)N2CCN(c3nc4cc(F)ccc4n4cccc34)CC2)c1 returned GIV-Gai inh 107 and HCMV NEC inh 7.
Screening CN1C(=O)C(=Cc2cc(Br)ccc2OCCOc2ccccc2)C(=O)N(C)C1=O returned GIV-Gai inh 102 and HCMV NEC inh -12.
For COc1ccc(CNC(=O)c2nc(-c3cn(-c4ccccc4)nc3C)no2)cc1 the results were GIV-Gai inh 103 and HCMV NEC inh -8.
O=C(NCCc1c[nH]c2ccc(Cl)cc12)C1CCCO1 (stereo unspecified) was read as Sa growth inh 95, GIV-Gai inh 102, HCMV NEC inh -9 and Sa growth inh second temp 103.
`CNC(=O)CSCc1ccc(Br)cc1` gave Sa growth inh 109, HCMV NEC inh -4 and Sa growth inh second temp 92.
`CCn1c(CCc2nnc(SCC(=O)c3ccccc3)n2CC)nnc1SCC(=O)c1ccccc1` gave Sa growth inh 83, GIV-Gai inh 100, HCMV NEC inh -29 and Sa growth inh second temp 78.
`COc1ccc(NC(=O)CN2CCCN(Cc3ccccc3)S2(=O)=O)cc1` gave Sa growth inh 92, GIV-Gai inh 102 and Sa growth inh second temp 89.
`CCSc1nccn2nc(-c3ccc(F)cc3)cc12` gave GIV-Gai inh 99 and HCMV NEC inh 11.
For CCCn1c(=S)[nH]c2cc(C(=O)N3CCN(C)CC3)ccc2c1=O the results were Sa growth inh 92, GIV-Gai inh 102, HCMV NEC inh -21 and Sa growth inh second temp 90.
Screening CCn1c(SCC(=O)c2ccccc2)nc2sc3c(c2c1=O)CC(C)(C)OC3 returned GIV-Gai inh 102 and HCMV NEC inh -10.
CCc1nn(CC(=O)NC2CC2)c(=O)c2cc3c(OC)cccc3n12 was read as Sa growth inh 87, GIV-Gai inh 99, HCMV NEC inh -13 and Sa growth inh second temp 89.
CC(C)Cn1c(C23CC4CC(CC(C4)C2)C3)n[nH]c1=S was read as Sa growth inh 62, GIV-Gai inh 101, HCMV NEC inh -6 and Sa growth inh second temp 90.
`CCOC(=O)c1c(NC(=O)/C=C/c2ccc(OCC)cc2)sc(C(C)=O)c1C` gave Sa growth inh 109, GIV-Gai inh 110, HCMV NEC inh -7 and Sa growth inh second temp 96.
For COc1ccc(Cl)cc1N(CC(=O)Nc1ccc2c(c1)OCO2)S(=O)(=O)c1ccc(C)c([N+](=O)[O-])c1 the results were GIV-Gai inh 108 and HCMV NEC inh -14.
`Cc1cc(F)ccc1NC(=O)CCS(=O)(=O)c1cc2c3c(c1)CCN3C(=O)CC2` gave Sa growth inh 85, GIV-Gai inh 101 and Sa growth inh second temp 90.
Screening CCSc1nnc(NC(=O)c2ccc3c(c2)NC(=O)CS3)s1 returned Sa growth inh 121, HCMV NEC inh -12 and Sa growth inh second temp 104.
CN(CC(=O)N1CCc2ccccc21)S(=O)(=O)c1ccc2[nH]c3c(c2c1)CCCC3 was read as Sa growth inh 83, GIV-Gai inh 95 and Sa growth inh second temp 95.

As a short view, two of the compounds above.
Screening CCSc1nnc(NC(=O)c2ccc3c(c2)NC(=O)CS3)s1 returned Sa growth inh 121, HCMV NEC inh -12 and Sa growth inh second temp 104.
CN(CC(=O)N1CCc2ccccc21)S(=O)(=O)c1ccc2[nH]c3c(c2c1)CCCC3 was read as Sa growth inh 83, GIV-Gai inh 95 and Sa growth inh second temp 95.

(continued)
Nc1ccc(N2CCOCC2)c2nonc12 was read as Sa growth inh 90, GIV-Gai inh 63*, HCMV NEC inh 5 and Sa growth inh second temp 57.
`C=CCC1CC(=O)N(c2ccc(C(F)(F)F)cc2)C1=O` (stereo unspecified) gave Sa growth inh 98, GIV-Gai inh 101, HCMV NEC inh 2 and Sa growth inh second temp 112.
Screening C=CCNC(=O)c1c(N)n(-c2cccc(S(N)(=O)=O)c2)c2nc3ccccc3nc12 returned Sa growth inh 104, HCMV NEC inh -15 and Sa growth inh second temp 99.
For COc1cc(C(=O)N2CCN(c3ccc(Nc4ccc(C)cc4)nn3)CC2)cc(OC)c1OC the results were Sa growth inh 113, GIV-Gai inh 98 and Sa growth inh second temp 84.
For O=C(CN1CCN(c2ccc(O)cc2)CC1)c1ccc[nH]1 the results were Sa growth inh 92, HCMV NEC inh -42 and Sa growth inh second temp 84.
Screening O=C(CSCc1ccccc1)NCc1ccc2c(c1)OCO2 returned Sa growth inh 113, HCMV NEC inh 0 and Sa growth inh second temp 88.
O=C(COc1ccc(F)cc1)Nc1cccc2nsnc12 was read as GIV-Gai inh 105 and HCMV NEC inh -14.
For CCCn1c(CCC(=O)O)ccc1-c1ccccc1 the results were Sa growth inh 126, GIV-Gai inh 108&100, HCMV NEC inh -8&-14 and Sa growth inh second temp 85.
For O=C(Nc1ccc(F)cc1F)c1c(C(F)(F)F)ccnc1Oc1ccccc1 the results were Sa growth inh 105, GIV-Gai inh 101, HCMV NEC inh 1 and Sa growth inh second temp 94.
CN1C(=O)C(C)(C)c2cc(S(=O)(=O)N(C)CC(=O)NCc3ccccc3)ccc21 was read as Sa growth inh 103, GIV-Gai inh 104 and Sa growth inh second temp 90.
COc1ccc(CCNC(=O)CCCn2c(=O)c3ccccc3n(Cc3ccc(C)cc3)c2=O)cc1OC was read as Sa growth inh 104, GIV-Gai inh 103, HCMV NEC inh -2 and Sa growth inh second temp 89.
`c1ccc(Nc2nc(CN3CCCCC3)cs2)cc1` gave Sa growth inh 118, GIV-Gai inh 107, HCMV NEC inh -1 and Sa growth inh second temp 99.

Looked up by compound from the list above, 4 records:
CN1C(=O)C(C)(C)c2cc(S(=O)(=O)N(C)CC(=O)NCc3ccccc3)ccc21 was read as Sa growth inh 103, GIV-Gai inh 104 and Sa growth inh second temp 90.
`C=CCC1CC(=O)N(c2ccc(C(F)(F)F)cc2)C1=O` (stereo unspecified) gave Sa growth inh 98, GIV-Gai inh 101, HCMV NEC inh 2 and Sa growth inh second temp 112.
`c1ccc(Nc2nc(CN3CCCCC3)cs2)cc1` gave Sa growth inh 118, GIV-Gai inh 107, HCMV NEC inh -1 and Sa growth inh second temp 99.
Screening C=CCNC(=O)c1c(N)n(-c2cccc(S(N)(=O)=O)c2)c2nc3ccccc3nc12 returned Sa growth inh 104, HCMV NEC inh -15 and Sa growth inh second temp 99.

Further records.
CCCCCNc1nc2c(-c3ccccc3)nnn2c2ccccc12 was read as Sa growth inh 110, GIV-Gai inh 104&106, HCMV NEC inh -24&-30 and Sa growth inh second temp 91.
`Cc1cccc(C)c1NC(=O)C1C2C=CC(C2)C1C(=O)NCc1ccccn1` (stereo unspecified) gave Sa growth inh 92, GIV-Gai inh 102, HCMV NEC inh -7 and Sa growth inh second temp 80.
O=C(NCCCc1ccccc1)c1cccs1 was read as Sa growth inh 92, GIV-Gai inh 102, HCMV NEC inh 12 and Sa growth inh second temp 87.
`CN(C)Cn1c(=S)oc2cc(S(=O)(=O)Nc3ccccc3Cl)ccc21` gave Sa growth inh 87, HCMV NEC inh -14 and Sa growth inh second temp 85.
`O=C(O)C1(c2ccccc2)CCOCC1` gave Sa growth inh 89, GIV-Gai inh 111, HCMV NEC inh -8 and Sa growth inh second temp 81.
Screening COCCNC(=O)c1ccc2c(=O)n(CCOC)c(SC(C)C(=O)c3ccc(C)c(C)c3)nc2c1 (stereo unspecified) returned GIV-Gai inh 100 and HCMV NEC inh 7.
Cn1nnnc1SCCCNCc1cccc(OCc2ccc(Cl)cc2)c1 was read as Sa growth inh 97, GIV-Gai inh 106, HCMV NEC inh -24 and Sa growth inh second temp 62.
CCOC(=O)N1CCc2c(sc(NCc3cccc(F)c3)c2C(=O)Nc2ccc(OCC)cc2)C1 was read as Sa growth inh 84, GIV-Gai inh 107 and Sa growth inh second temp 68.
CC1CC(C)CN(C(=O)CNC(=O)Cn2cnc3ccccc3c2=O)C1 (stereo unspecified) was read as Sa growth inh 101, GIV-Gai inh 102, HCMV NEC inh -4 and Sa growth inh second temp 92.
Cc1ccc(CNC(=O)CCc2cn(C)c3ccccc23)cc1 was read as Sa growth inh 120, GIV-Gai inh 101 and Sa growth inh second temp 88.
Screening CCN(CC)c1ccc(NC(=O)CNCC2CCCCC2)c(C)c1 returned Sa growth inh 127, GIV-Gai inh 105, HCMV NEC inh -10 and Sa growth inh second temp 93.
CCc1oc2ccccc2c1C(=O)c1cc(Br)c(O)c(Br)c1 was read as Sa growth inh 4.4*!, HCMV NEC inh -4&-72&25&-42 and Sa growth inh second temp 0.3*!.
Screening CN1CCCN(C(=O)c2ccc(C#N)cc2)CC1 returned Sa growth inh 115, HCMV NEC inh -25 and Sa growth inh second temp 82.
`Cc1ccc(Cl)cc1NC(=O)Cn1c(=O)n(Cc2ccccc2)c(=O)c2oc3ccccc3c21` gave Sa growth inh 113, GIV-Gai inh 101 and Sa growth inh second temp 90.
For CCCN(CCC)S(=O)(=O)C1CCS(=O)(=O)C1 (stereo unspecified) the results were Sa growth inh 103, GIV-Gai inh 108, HCMV NEC inh 15 and Sa growth inh second temp 99.
CCn1c(SCc2c(F)cccc2Cl)nc2cc(S(N)(=O)=O)ccc21 was read as Sa growth inh 79, HCMV NEC inh -12 and Sa growth inh second temp 95.
Cn1nnnc1SCCCNCc1ccc(-c2ccc(Br)cc2)o1 was read as Sa growth inh 103, GIV-Gai inh 99, HCMV NEC inh -48 and Sa growth inh second temp 78.
For O=C(CN1CCC(O)(c2ccccc2)CC1)NC1CCCCC1 the results were Sa growth inh 111, GIV-Gai inh 108, HCMV NEC inh -5 and Sa growth inh second temp 90.
Screening Cc1cc(C(=O)CSc2nnc(SCC(=O)c3cc(C)n(CC4CCCO4)c3C)s2)c(C)n1CC1CCCO1 (stereo unspecified) returned Sa growth inh 96, HCMV NEC inh -8 and Sa growth inh second temp 83.
For CC(C)c1nc2ccccc2n1C(=O)c1ccccc1C(=O)O the results were Sa growth inh 105, GIV-Gai inh 97 and Sa growth inh second temp 101.
For Cc1ccc(S(=O)(=O)N2CCCC2C(=O)OCC(=O)Nc2cc(C)on2)cc1 (stereo unspecified) the results were Sa growth inh 105, HCMV NEC inh -4 and Sa growth inh second temp 97.

Compound activity: PubChem, ICCB-Longwood Screening Facility, Harvard Medical School
